High-throughput results (PubChem)
PV pol inh: poliovirus RNA polymerase inhibition; P03300; poliovirus polymerase elongation, fluorescence polarization; hits give low values; % elongation, % (compound at 16.7 µg/mL); actives 0.66% (n = 150,000); AID 588519; in the data active means % elongation below about 90%; further: some results filed as inactive read as strong as hits
Target sequence (P03300 1749-2209 limits assumed): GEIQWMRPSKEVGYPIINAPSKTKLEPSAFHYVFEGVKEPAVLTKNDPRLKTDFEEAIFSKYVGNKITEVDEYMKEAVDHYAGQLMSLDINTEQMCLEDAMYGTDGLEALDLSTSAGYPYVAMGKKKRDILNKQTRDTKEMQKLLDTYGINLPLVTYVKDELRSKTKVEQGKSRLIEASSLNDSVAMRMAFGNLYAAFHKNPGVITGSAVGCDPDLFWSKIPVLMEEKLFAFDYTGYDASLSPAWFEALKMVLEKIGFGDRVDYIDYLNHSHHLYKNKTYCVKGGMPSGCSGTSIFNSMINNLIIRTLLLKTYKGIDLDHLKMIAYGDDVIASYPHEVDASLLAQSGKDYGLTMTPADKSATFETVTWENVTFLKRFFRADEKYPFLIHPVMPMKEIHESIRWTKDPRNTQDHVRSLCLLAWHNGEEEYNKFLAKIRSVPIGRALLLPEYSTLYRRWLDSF
PV pol inh intensity: recorded beside PV pol inh, whose call it bears; % elongation; measured here: total intensity read-out; formula for this scale not given here;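 total fluorescence in place of polarization; lower means less elongation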
Starred values were filed as active, the others as inactive.

Under each structure: PV pol inh, PV pol inh intensity
Cc1ccc(Cn2c(C)c3cnn(CC(=O)N4CCN(c5ccc(F)cc5)CC4)c(=O)c3c2C)cc1
→ 105, 102
Cc1ccc(C)c(N2CCN(C(=O)c3cc(C)nc4c3c(C)nn4-c3cccc(F)c3)CC2)c1
→ 113, 98
COc1ccc(CC(=O)N2CC(=O)Nc3ccc(Br)cc3C2c2ccc(F)cc2)cc1 (stereo not given)
→ 100, 102
Cc1ccccc1-c1nc2scc(CCNC(=O)c3ccco3)n2n1
→ 99, 106
COc1cccc(CNC(=O)c2ccc3nc(CCc4ccccc4)oc3c2)c1OC
→ 104, 106
COc1ccc(-c2c(C)nn3c(-c4ccccc4)cc(-c4ccccc4)nc23)cc1
→ 101, 105
COc1ccc(Cn2c(CNC(=O)Cc3ccc(OC)c(OC)c3)nc3cccnc32)cc1
→ 107, 115
CC1CCN(C(=O)CSc2c3c(nc4ccc(Cl)cc24)CCCC3)CC1
→ 101, 97
CCSc1ncc(Cl)c(C(=O)Nc2nc3ccc(S(C)(=O)=O)cc3s2)n1
→ 105, 95
CCc1ccccc1NC(=O)c1ccc2nc(C(C)C)oc2c1
→ 100, 103
Cc1ccc(NC(=O)CN2C(=O)c3ccccc3Sc3ccc(C(=O)N4CCOCC4)cc32)cc1F
→ 101, 107
CCOC(=O)c1c(NC(=O)c2cc(=O)c3cc(C)cc(C)c3o2)sc(C)c1C
→ 102, 108
CCOc1ccc(CNC(=O)CCCc2cn(C)c3ccccc23)cc1OC
→ 103, 99
CCc1cccc(C)c1NC(=O)Cn1c(=O)cc(C(F)(F)F)c2c(C)nn(C)c21
→ 109, 102
CCN(CC)c1nc2c(S(=O)(=O)c3ccccc3)nnn2c2ccc(Cl)cc12
→ 104, 105
O=C(NCc1ccccn1)c1nn(-c2ccccc2Cl)nc1CO
→ 109, 108
COc1ccc(C)cc1NC(=O)C(=O)NCCc1sc(-c2cccc(C)c2)nc1C
→ 108, 114
Cc1cccc(Cn2cc(C(=O)Nc3ccc(F)c(C(F)(F)F)c3)ccc2=O)c1
→ 108, 100
CCCc1nn2c(=O)cc(COc3ccc(/C=C(\C#N)C(=O)Nc4ccc(F)cc4)cc3)nc2s1
→ 104, 104
CN(C)c1ccc(CNC(=O)C2CCCN(S(=O)(=O)c3ccc4c(ccn4C)c3)C2)cc1 (stereo not given)
→ 111, 111
CCOC(=O)C1CCN(S(=O)(=O)c2cc(-c3onc(C)c3C)ccc2C)CC1
→ 109, 108
Cc1ccccc1OCc1ccc(-c2nc(C#N)c(NCCCN(C)C)o2)o1
→ 100, 102
Cc1ccc(N2CC(C(=O)NCCS(=O)(=O)N3CCN(c4ccc(F)cc4)CC3)CC2=O)cc1 (stereo not given)
→ 107, 108
O=C(CSc1nnc(NC(=O)Nc2ccccc2)s1)Nc1cccc(F)c1
→ 101, 102
COc1ccccc1CCNC(=O)C(=O)NCC(c1cccs1)S(=O)(=O)c1ccccc1 (stereo not given)
→ 108, 106
CCCCCOC(=O)c1ccc(OC(=O)c2sc3ncn(Cc4cccc(F)c4)c(=O)c3c2C)cc1
→ 104, 99
COc1ccc(Nc2ncnc3onc(C)c23)c(OC)c1
→ 106, 106
CCC(=O)Nc1ccc(C)cc1-c1nc2ccccc2n(CC(=O)Nc2ccccc2Cl)c1=O
→ 98, 107
O=C(Nc1ccc2oc(-c3ccccc3F)nc2c1)c1ccccc1Cl
→ 107, 112
COC(=O)c1sc2cccc(F)c2c1S(=O)(=O)N1CCN(c2cccc(C)c2)C(C)C1 (stereo not given)
→ 114, 118

Going on with the list:
Compound,PV pol inh,PV pol inh intensity
CCC(=O)N1CCc2cc(CNC(=O)Nc3cc(C)ccc3C)ccc21,108,110
CCOc1ccc(C(=O)Nc2c(C(=O)N3CCN(c4ccccc4F)CC3)oc3ccccc23)cc1,102,110
CCNc1nc(OC)nc(Oc2ccc(=O)[nH]n2)n1,107,112
Cc1c(CNC2CCC(C)CC2)c(C(=O)O)c(C)n1Cc1ccccc1F (stereo not given),111,111
COC(=O)c1ccc(NC(=O)CN(Cc2ccccc2)S(=O)(=O)c2ccc(Cl)cc2)cc1,106,106
Cc1cccc(CNC(=O)c2cnc3c(-c4cccc(C)c4)c(C)nn3c2C)c1,104,110
Cc1cccc(N2CCN(C(=O)CN3C(=O)COc4ccc(S(=O)(=O)N5CCCC5)cc43)CC2C)c1 (stereo not given),102,103
CCN(CC)S(=O)(=O)c1ccc2c(c1)c(=O)c(C(=O)N1CCN(c3cc(C)ccc3C)CC1)cn2C,103,109

Four entries from above in a different format.
CCNc1nc(OC)nc(Oc2ccc(=O)[nH]n2)n1
  PV pol inh = 107	PV pol inh intensity = 112
Cc1c(CNC2CCC(C)CC2)c(C(=O)O)c(C)n1Cc1ccccc1F (stereo not given)
  PV pol inh = 111	PV pol inh intensity = 111
COC(=O)c1ccc(NC(=O)CN(Cc2ccccc2)S(=O)(=O)c2ccc(Cl)cc2)cc1
  PV pol inh = 106	PV pol inh intensity = 106
Cc1cccc(CNC(=O)c2cnc3c(-c4cccc(C)c4)c(C)nn3c2C)c1
  PV pol inh = 104	PV pol inh intensity = 110

Continuation.
Compound,PV pol inh,PV pol inh intensity
CCOc1ccc(Sc2cc(C(=O)NC(C)CC)c3ccccc3n2)cc1 (stereo not given),115,111
Cc1cccn2c(=O)c(C(=O)NCc3ccc(F)cc3)c(O)nc12,109,105
CCN(CCCNC(=O)CSc1cc(=O)n(C)c2ccccc12)c1ccccc1,106,109
CC(C)CCNC(=O)c1ccc(Cn2c(SCC(N)=O)nc3ccccc3c2=O)cc1,111,116
CCC(=O)Nc1ccc(S(=O)(=O)NCc2cccn2Cc2cccc(C)c2)cc1,105,109
CC1=C(C(=O)Nc2cccc(C(F)(F)F)c2)C2(CCCCCC2)OC1=O,109,107
CCOc1ccc(-c2cn3nc(CC(C)C)sc3n2)cc1,102,92
Cc1[nH]c2ccccc2c1C1(O)C(=O)N(Cc2ccc(Cl)cc2)c2ccccc21 (stereo not given),104,108

Sorted by molar mass (highest first): some entries from above.
Compound,PV pol inh,PV pol inh intensity
CCC(=O)Nc1ccc(S(=O)(=O)NCc2cccn2Cc2cccc(C)c2)cc1,105,109
CCN(CCCNC(=O)CSc1cc(=O)n(C)c2ccccc12)c1ccccc1,106,109
CCOc1ccc(Sc2cc(C(=O)NC(C)CC)c3ccccc3n2)cc1 (stereo not given),115,111

Continued.
Compound,PV pol inh,PV pol inh intensity
CCN(C(=O)Cn1nc(Cc2cccnc2)c2ccccc2c1=O)c1cc(C)ccc1C,107,111
CCOc1ccccc1Nc1nc(-c2ccc(C)cc2)c(CC(=O)O)s1,110,112
COc1ccc(-n2c(Cc3ccccc3)nnc2SCc2nc(-c3cccs3)no2)cc1,104,106
CN1CCc2c(sc3c2C(=O)NC(c2ccc(OC(=O)c4ccc(Cl)cc4)cc2)N3)C1 (stereo not given),86,230
CCCCCCC1CCC(C(=O)NC(C(=O)O)C(C)C)CC1 (stereo not given),102,107
COc1ccc(-c2nc3scc(CCNS(=O)(=O)c4cc(F)ccc4OC)n3n2)cc1OC,103,108
CCN(c1cccc(C)c1)S(=O)(=O)c1c(C)nc2sc(C)cn2c1=O,101,105
COc1cccc(CNC(=O)Cn2cc3c(n2)-c2c(oc(C(=O)N4CCOCC4)c2C)CC3)c1,116,114
COc1ccc2c(CNCc3cccs3)c(C(=O)O)n(Cc3ccc(F)cc3)c2c1,111,108
Cc1ccc(NC(=O)CN2CCSc3ccc(S(=O)(=O)N4CCCC4)cc32)cc1,112,113
Cc1ccc(-c2[nH]c(-c3ccccc3)nc2SCC(=O)NCC2CCCO2)cc1 (stereo not given),111,110
COc1cccc(NC(=O)c2nnn(Cc3ccc(OC)c(Br)c3)c2N)c1,104,105
O=C(NCc1ccc(F)cc1)c1ccc(NC(=O)N2CC3CCCN3c3ccccc32)cc1 (stereo not given),109,110
Cc1ccc(CNC(=O)C2CCCN(S(=O)(=O)c3cn(C)cn3)C2)cc1 (stereo not given),105,106
O=C(Nc1ccc2c(c1)CCCN2C(=O)c1cccs1)c1cccc(C(F)(F)F)c1,108,113
CCOc1ccccc1C(=O)N(Cc1cccs1)c1ccc(Cl)cc1,109,110
O=C(CN1C(=O)CC(c2ccc(F)cc2)=Nc2ccccc21)NCc1ccccc1Cl,102,106
CCCCn1cc2c(c1-c1ccc(Br)cc1)c(=O)n(C)c(=O)n2C,109,109
Cc1ccc2oc3c(c(=O)c2c1)C(c1ccccc1F)N(c1ccccn1)C3=O (stereo not given),105,105
Cc1nn(-c2ccccc2)c(OC(=O)C(C)C)c1Sc1ccccc1,106,106
CCCC12CN3CC(CCC)(CN(C1)C3c1c[nH]c3ccc(OC)cc13)C2=O (stereo not given),107,113
Cc1ccc(N2C(=O)CSC23C(=O)N(CC(=O)NCc2ccccc2)c2ccccc23)cc1C (stereo not given),104,110
CCN1CCOC(=O)C1CC(=O)Nc1cccc(OC)c1 (stereo not given),110,109
CC1=C(C(=O)Nc2ccccc2)C(c2ccc[nH]2)n2ncnc2N1 (stereo not given),101,105

Taken from above:
COc1ccc(Nc2ncnc3onc(C)c23)c(OC)c1 in PV pol inh intensity is listed with 106
CCN1CCOC(=O)C1CC(=O)Nc1cccc(OC)c1 (stereo not given) in PV pol inh is listed with 110
Cc1nn(-c2ccccc2)c(OC(=O)C(C)C)c1Sc1ccccc1 in PV pol inh intensity is listed with 106

Going on with the list:
Compound,PV pol inh,PV pol inh intensity
CC(NC(=O)c1ccc2c(c1)N(Cc1ccc(Cl)cc1)C(=O)c1ccccc1S2=O)c1ccccc1 (stereo not given),100,102
CS(=O)(=O)N(CC(=O)NCCSc1ccccc1)c1cc(C(F)(F)F)ccc1Cl,107,108
O=S(=O)(Nc1cc(Br)c(O)c2ccccc12)c1ccc(Cl)cc1,97,94
CCOC(=O)COc1ccc(C)cc1C(=O)c1ccn2nc(-c3ccc(Cl)cc3)cc2n1,104,107
Cc1cccc(C(=O)Nc2nnc(S(=O)(=O)N(C)Cc3ccc(Cl)cc3)s2)c1,102,104
Cc1ccc(Cl)cc1-n1ncc2c(N3CCCCCC3)ncnc21,106,105
COc1ccc(-c2nnc(SCC(=O)Nc3cccc(F)c3)s2)cc1,109,110
O=C(Nc1nnc2n1CCS2)c1ccc(F)cc1F,107,103

Full records, quoted from the list. Values in the order: PV pol inh | PV pol inh intensity
CS(=O)(=O)N(CC(=O)NCCSc1ccccc1)c1cc(C(F)(F)F)ccc1Cl is entered as 107 | 108
O=S(=O)(Nc1cc(Br)c(O)c2ccccc12)c1ccc(Cl)cc1 is entered as 97 | 94
COc1ccc(-c2nnc(SCC(=O)Nc3cccc(F)c3)s2)cc1 is entered as 109 | 110
CCOC(=O)COc1ccc(C)cc1C(=O)c1ccn2nc(-c3ccc(Cl)cc3)cc2n1 is entered as 104 | 107
Cc1ccc(Cl)cc1-n1ncc2c(N3CCCCCC3)ncnc21 is entered as 106 | 105

Other entries.
Compound,PV pol inh,PV pol inh intensity
Cc1ccc(N2CCN(C(=O)Cc3c(C(=O)O)c(C)cn3C)CC2)c(C)c1,105,112
Cc1ccc(-n2c(=O)c3c4c(sc3n(CC(=O)c3ccc(Cl)cc3)c2=O)CCC4)cc1C,100,98
Cc1nc2c(c(C)nn2-c2ccccc2)c(C)c1CCC(=O)NCCc1ccccc1,105,111
COc1ccc(-c2noc(-c3ccc(N4CCCC4)c([N+](=O)[O-])c3)n2)cc1,111,98
COc1cccc(CNC(=O)C2(c3cccs3)CCOCC2)c1,110,107
O=C(CSc1nnc(CNC(=O)c2c(F)cccc2Cl)o1)Nc1ccccc1F,112,114
COCCCNC(=O)CCCn1c(=O)c2ccccc2n(CC(=O)Nc2ccc(C)cc2Cl)c1=O,103,104

The list is partial; the hit share may differ from the screen's.
